# CBX7 inh – CBX7 inhibition, primary AlphaScreen; O95931; AlphaScreen His6-CBX7 / biotin-H3K27me3 peptide binding; stronger effect = lower value; normalised signal (fraction of DMSO) (test concentration not listed); 1.1% of 66,000 active; AID 1224903; in the data active means normalised signal below about 0.5;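 further: 100 nL library stock added to about 20 µL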
# Target sequence (O95931 whole entry, looked up): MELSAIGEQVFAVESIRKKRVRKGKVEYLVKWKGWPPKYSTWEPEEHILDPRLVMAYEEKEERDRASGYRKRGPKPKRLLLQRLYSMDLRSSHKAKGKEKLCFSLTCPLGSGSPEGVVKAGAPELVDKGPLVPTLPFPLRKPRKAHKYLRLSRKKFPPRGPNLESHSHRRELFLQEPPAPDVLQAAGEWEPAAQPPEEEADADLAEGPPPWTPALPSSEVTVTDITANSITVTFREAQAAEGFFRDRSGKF
# CBX7 inh z-score – second read-out of CBX7 inh, no call of its own (marks repeat the call); z-score; measured here: z-score of CBX7 signal; some inactives read as strong as hits; reference of the scale not given here;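 same signal on another scale; lower means less binding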
# Numbers without * were called inactive; & = joins results of further samples. This is a subset; rates above refer to the full screens.
SMILES,CBX7 inh,CBX7 inh z-score
CCC(C)NC(=O)CN1C(=O)CN=C(c2ccccc2)c2cc(Cl)ccc21 (stereo unspecified),1.4,3
COc1cc2c(cc1OC)C1C(C(=O)N3CCC4(CC3)OCCO4)c3ccccc3C(=O)N1CC2 (stereo unspecified),0.97,-0.86
Cc1oc(-c2ccccc2F)nc1CN1C(=O)CN=C(c2ccccc2)c2ccccc21,0.94,-2.9
FC(F)Oc1ccc(C2NCc3ccccc3-n3cccc32)cc1 (stereo unspecified),0.81,-3.1
CCOC(=O)C1(c2ccccc2)CCN(CC(=O)Nc2ccc(C)c(Br)c2)CC1,0.91,-1.6
COc1ccc2[nH]c(C)c(CCNCc3cccc(C)n3)c2c1,0.72,-5.1
O=c1c2ccccc2nc(/C=C/c2cccc3ccccc23)n1-c1cccc(F)c1,1.1,0.067
COc1cc(C2NCc3ccccc3-n3cccc32)ccc1F (stereo unspecified),0.81,-6.9
O=C(c1ccccc1)N1CC2C(Nc3ccccc31)C1CCN2CC1 (stereo unspecified),0.93,-0.82
O=C(O)c1cc(S(=O)(=O)N2CC3CC(C2)c2cccc(=O)n2C3)ccc1F (stereo unspecified),0.98,-0.025

# Overlap with the part before: 2 compounds; new compounds follow.
SMILES,CBX7 inh,CBX7 inh z-score
O=C(c1ccccc1)N1CC2C(Nc3ccccc31)C1CCN2CC1 (stereo unspecified),0.93,-0.82
O=C(O)c1cc(S(=O)(=O)N2CC3CC(C2)c2cccc(=O)n2C3)ccc1F (stereo unspecified),0.98,-0.025
CCc1ccccc1NC(=O)CN1C(=O)C(C)N=C(c2ccccc2)c2ccccc21 (stereo unspecified),0.96,-0.74
COc1ccc(C(=O)Nc2ccc(Cl)cc2C(=O)c2ccccc2)c(OC)c1,0.98,-0.51
O=C(CN1C(=O)CN=C(c2ccccc2)c2cc(Cl)ccc21)Nc1cccc(C(F)(F)F)c1,1.2,1.3
O=C(Nc1ccc(Br)cc1C(=O)c1ccccc1Cl)c1ccc(Oc2ccccc2)cc1,0.94,-0.39
Cc1ccnc(-n2c(CN3C(=O)c4ccccc4C3=O)nc3ccccc3c2=O)c1,1.1,2.3
Cc1ccccc1-n1nnnc1C1(NCCc2c(C)[nH]c3ccccc23)CCCCC1,0.49*,-9.3*
Cc1ccc(NC(=O)CN2C(=O)C(C)N=C(c3ccccc3)c3cc(Cl)ccc32)cc1F (stereo unspecified),0.89,-3
Cc1ccc2c(c1)[C@@H]1CN(C)CC[C@H]1N2C(=O)C1CCCC1,0.97,-0.45
COc1ccc(CCNCc2cc(OC)c3c(c2)OCO3)cc1,0.97,-1.6
COC(=O)c1c(C)n(CCCOC(C)C)c2c1cc(O)c1ccccc12,0.74,-2.6
COc1ccc(-n2c(/C=C\c3ccccc3F)nc3ccccc3c2=O)cc1,1,0.14
Cc1ccc2c(c1)C(c1ccccc1)NCC(=O)N2 (stereo unspecified),0.95,-0.51
O=c1c2ccccc2nc(/C=C\c2ccccc2F)n1-c1ccccc1F,1,0.81
CCN(C(=O)CN1C(=O)C(C)N=C(c2ccccc2F)c2cc(Cl)ccc21)c1cccc(C)c1 (stereo unspecified),0.93,-2.5
O=C1Nc2ccc(Br)cc2C(c2ccccc2)=NC1O (stereo unspecified),1.1,0.36
O=c1c2ccccc2nc(/C=C\c2cccc(F)c2)n1-c1cccc(C(F)(F)F)c1,0.92,-0.083
CCOc1cc2c(cc1OCC)-n1cccc1C(c1cccc(C(F)(F)F)c1)NC2 (stereo unspecified),0.89,-2.3
c1ccc(CCCCN2CCc3c([nH]c4ccccc34)C2)cc1,0.92,-1.2
Cc1ccc(C2(O)CC(C)N(C)CC2C)c(C)c1 (stereo unspecified),0.99,-0.12
CC(=O)N1CC(=O)Nc2ccc(Cl)cc2C1c1ccccc1 (stereo unspecified),0.98,-0.098
Cc1cccc(NC(=O)CN2C(=O)C(C)N=C(c3ccccc3)c3ccccc32)c1C (stereo unspecified),0.95,-1.3
CN1C2CCC1CC(O)(c1ccccc1)C2 (stereo unspecified),1.1,2.7
CCN(CC)S(=O)(=O)c1ccc2oc(C(=O)N3CCC4(CC3)OCCO4)c(C)c2c1,1.1,1.1
O=C1CN=C(c2ccccc2)c2ccccc2N1Cc1ccc(F)cc1Cl,1,0.73
COc1ccc(Cl)cc1-n1c(/C=C\c2ccccc2F)nc2ccccc2c1=O,1,2.4
COc1ccc(CCNCc2cccnc2)cc1OC,0.91,-2.6
COc1ccc(-n2c(/C=C\c3cccc(Br)c3)nc3ccccc3c2=O)c(OC)c1,1.1,3.3
CC(=O)N1CC2C(C3CCN2CC3)N(C(C)=O)c2ccccc21 (stereo unspecified),1,0.72
Cc1cccc(-n2c(/C=C/c3c(C)[nH]c4ccccc34)nc3ccccc3c2=O)c1,1,0.044
O=c1c2ccccc2nc(/C=C/c2cccc(F)c2)n1-c1ccc(F)c(Cl)c1,1.1,2.3
CCCCNC(=O)CN1C(=O)C(C)N=C(c2ccccc2)c2cc(Cl)ccc21 (stereo unspecified),0.94,-0.86
CCN(C(=O)CN1C(=O)C(C)N=C(c2ccccc2)c2ccccc21)c1ccccc1 (stereo unspecified),0.93,-3.6
O=C1NC(c2cccnc2)Nc2sc3c(c21)CCCC3 (stereo unspecified),1,0.11
C=CCc1cc(C)cc(-n2nc3ccccc3n2)c1O,1.4,0.84
Cc1ccc(-n2c(/C=C/c3ccccc3)nc3ccccc3c2=O)cc1,1,0.0019
Cc1c(C(=O)N(C)Cc2ccccc2)oc2ccc(S(=O)(=O)N3CC(C)CC(C)C3)cc12 (stereo unspecified),0.7,-3
COc1ccc(-n2c(/C=C/c3ccccc3)nc3ccccc3c2=O)cc1Cl,0.95,-0.52
Fc1cccc(C2NCc3ccccc3-n3cccc32)c1F (stereo unspecified),0.97,-1.3
Cc1ccc(C2=NCC(=O)Nc3c2oc2ccccc32)cc1,0.93,-1.3
Cc1ccc2c(c1)[C@@H]1CN(C)CC[C@@H]1N2C(=O)CN1CCCCC1,1.1,0.089

# Entries of single compounds from above:
# `CCN(C(=O)CN1C(=O)C(C)N=C(c2ccccc2)c2ccccc21)c1ccccc1` (stereo unspecified) in the list: CBX7 inh = 0.93; CBX7 inh z-score = -3.6
# `C=CCc1cc(C)cc(-n2nc3ccccc3n2)c1O` in the list: CBX7 inh = 1.4; CBX7 inh z-score = 0.84

# The listing continues:
SMILES,CBX7 inh,CBX7 inh z-score
CCC1=Nc2cc(C(=O)N3CCC4(CC3)OCCO4)ccc2Sc2ccc(C)cc21,0.91,-4.1
Cc1ccc(-n2c(/C=C/c3c[nH]c4ccccc34)nc3ccccc3c2=O)cc1,1,0.087
Cc1cccc(NC(=O)CN2C(=O)CN=C(c3ccccc3F)c3cc(Cl)ccc32)c1C,0.74,-4.8
COc1ccccc1N(C(=O)c1ccccc1)C1CN2CCC1CC2 (stereo unspecified),1.2,1.7
Cc1ccc2c(c1)[C@@H]1CN(C)CC[C@@H]1N2C(=O)c1ccc(F)cc1,1,1.2
COc1ccc(/C=C/c2nc3ccccc3c(=O)n2-c2ccc(F)cc2)cc1,1.3,9.1
O=C(CN1C(=O)CN=C(c2ccccc2)c2ccccc21)NCC1CCCO1 (stereo unspecified),1.3,1.9
COc1cc(OC)cc(C(=O)Nc2ccc(Cl)cc2C(=O)c2ccccc2Cl)c1,0.96,-0.18
Cc1ccc(C2=NCC(=O)Nc3ccc(Br)cc32)cc1,0.97,-0.74
CC1N=C(c2ccccc2)c2ccccc2N(CC(=O)NCCc2ccccc2)C1=O (stereo unspecified),1.2,1.8
CN(C)c1ccc(NC(=O)CN2C(=O)CN=C(c3ccccc3)c3ccccc32)cc1,0.83,-4.2
COc1ccc(Cl)cc1-n1c(/C=C/c2ccccc2)nc2ccccc2c1=O,0.99,-0.41
CCC(=O)OC1N=C(c2ccccc2Cl)c2cc(Br)ccc2NC1=O (stereo unspecified),0.97,-0.91
Cc1nn(-c2ccccc2)c2c1C(c1ccccc1)SCC(=O)N2 (stereo unspecified),1,0.48
O=C(N1CCN(c2ccccc2)CC1)C(O)(c1ccccc1)c1ccccc1,1,0.03
CCC(C(=O)Nc1ccc(C(C)C)cc1)N1C(=O)C(C)N=C(c2ccccc2)c2ccccc21 (stereo unspecified),1,0.52
CCC(C)n1[nH]c(=O)c2c1NC(=O)CSC2c1ccc(OCc2ccccc2)cc1 (stereo unspecified),1,0.96
Cc1ccccc1-n1c(/C=C/c2ccc3c(c2)OCO3)nc2ccccc2c1=O,1.2,0.75
O=C(Cn1nc(-c2ccccc2)ccc1=O)N1CCC2(CC1)OCCO2,1,0.34
O=c1c2ccccc2nc(/C=C\c2ccc(F)c(F)c2)n1-c1ccc(F)cc1,1,0.2
COc1ccc(CCNCc2ccccn2)cc1OC,0.27*,-12*
COc1ccccc1-n1c(/C=C/c2ccc3c(c2)OCO3)nc2ccccc2c1=O,0.95,-0.19
O=c1c2ccccc2nc(/C=C\c2ccccc2F)n1-c1ccc(F)cc1,0.99,-0.26
CCc1nn2c(=O)cc(N3CCNCC3)nc2s1,0.97,-0.31
O=C(CN1C(=O)CN=C(c2ccccc2)c2cc(Cl)ccc21)Nc1ccccc1C(F)(F)F,0.89,-2
CC1N=C(c2ccccc2)c2cc(Cl)ccc2NC1=O (stereo unspecified),1,1.2
Nc1ccc2c(c1)C13CCN4CC5=CCOC6CC(=O)N2C1C6C5CC43 (stereo unspecified),0.95,-1.4
CCOc1cc(C2NCc3ccccc3-n3cccc32)ccc1OC (stereo unspecified),0.81,-3.1
O=C(CN1CC(c2ccccc2)CC1=O)Nc1ccc(Cl)c(Cl)c1 (stereo unspecified),0.97,-0.69
COc1ccc(NC(=O)CN2C(=O)C(C)N=C(c3ccccc3)c3ccccc32)c(OC)c1 (stereo unspecified),0.97,-1.2

# 3 of these compounds, reformatted.
structure | CBX7 inh | CBX7 inh z-score
O=c1c2ccccc2nc(/C=C\c2ccccc2F)n1-c1ccc(F)cc1 | 0.99 | -0.26
CCc1nn2c(=O)cc(N3CCNCC3)nc2s1 | 0.97 | -0.31
O=C(CN1C(=O)CN=C(c2ccccc2)c2cc(Cl)ccc21)Nc1ccccc1C(F)(F)F | 0.89 | -2

# Next compounds:
SMILES,CBX7 inh,CBX7 inh z-score
O=C1CSC(c2ccccc2)c2c(-c3ccccc3)nn(-c3ccccc3)c2N1 (stereo unspecified),0.95,-1.5
O=c1c2ccccc2nc(-c2cccnc2)n1-c1ccc(Br)cn1,1.1,2.3
CCC(C)C1N=C(c2ccccc2)c2cc(Cl)ccc2N(CC(=O)NCCC(C)C)C1=O (stereo unspecified),0.98,-0.79
CCC(C)NC(=O)CN1C(=O)C(C)N=C(c2ccccc2)c2cc(Cl)ccc21 (stereo unspecified),1.1,1.7
CCC(C)n1[nH]c(=O)c2c1NC(=O)CSC2c1ccccc1 (stereo unspecified),1,0.64
O=C1Nc2ccc(Br)cc2C(c2ccc(Cl)cc2)=NC1O (stereo unspecified),0.96,-1.7
O=C(CN1C(=O)CN=C(c2ccccc2)c2ccccc21)Nc1ccccc1C(F)(F)F,1.1,0.8
Cc1c(C(=O)N2CCC3(CC2)OCCO3)oc2ccc(S(=O)(=O)N3CCCCC3)cc12,0.97,-0.59
CCCCNC(=O)CN1C(=O)C(C)N=C(c2ccccc2)c2ccccc21 (stereo unspecified),0.98,-0.58
CCCC1C(c2ccccc2)NC(c2ccccc2)CC1(O)c1ccc(F)cc1 (stereo unspecified),0.94,-0.92

# Some of these compounds in order of length of the SMILES, falling.
SMILES,CBX7 inh,CBX7 inh z-score
CCCC1C(c2ccccc2)NC(c2ccccc2)CC1(O)c1ccc(F)cc1 (stereo unspecified),0.94,-0.92
CCC(C)n1[nH]c(=O)c2c1NC(=O)CSC2c1ccccc1 (stereo unspecified),1,0.64
O=C1Nc2ccc(Br)cc2C(c2ccc(Cl)cc2)=NC1O (stereo unspecified),0.96,-1.7

# Continuation:
SMILES,CBX7 inh,CBX7 inh z-score
COc1ccc(C2=NOC(C(=O)N3CCC4(CC3)OCCO4)C2)cc1 (stereo unspecified),0.97,-0.43
O=C1C2CCN(CC2)C1Cc1ccccc1O (stereo unspecified),1.3,2.5
Cc1ccc(C)c(CN2C(=O)CN=C(c3ccccc3)c3ccccc32)c1,0.96,-0.88
CN(C)c1ccc(/C=C/c2nc3ccccc3c(=O)n2-c2ccccc2)cc1,1.1,0.087
O=C1CN=C(c2ccc(F)cc2)c2oc3ccccc3c2N1,0.77,-2.4
CCC(=O)OC1(c2ccccc2)CCN(C)CC1C (stereo unspecified),1.1,0.46
C#CC1(C)CCC2C(O1)c1ccccc1OC2(C)C (stereo unspecified),0.96,-0.12
Cc1cccnc1NC(=O)c1c(O)c2ccccc2n(Cc2ccccc2)c1=O,0.97,-0.2
Cc1nc2ccccc2c(=O)n1-c1ccccn1,0.93,-0.8
COc1ccccc1/C=C/c1nc2ccccc2c(=O)n1-c1ccc(Br)c(C)c1,1,1.1
CCOC(=O)c1c(C)n(CCN2CCN(c3ccccc3)CC2)c2ccc(OC)cc12,0.95&0.92,-1.4&-1.8
COc1ccccc1NC(=O)CN1C(=O)CN=C(c2ccccc2)c2ccccc21,0.89,-2
CCC(C(=O)Nc1ccc(C(C)C)cc1)N1C(=O)CN=C(c2ccccc2)c2ccccc21 (stereo unspecified),0.86,-2.6
CC(C)c1ccc(C2NCc3ccccc3-n3cccc32)cc1 (stereo unspecified),0.9,-5.1
COc1ccc(C2SCC(=O)Nc3c2c(=O)[nH]n3C2CCCC2)cc1OC (stereo unspecified),1.1,1.6
Nc1nonc1NC(=O)COC1CN2CCC1CC2 (stereo unspecified),1,1.2
CCCCc1nc2ccccc2c(=O)n1-c1ccccc1,1,0.73
CN1CCc2nc(N)c3c(=O)oc4ccccc4c3c2C1,1,0.063
O=C(CCn1nc(-c2ccc(Cl)cc2)ccc1=O)N1CCC2(CC1)OCCO2,1,0.061

# Source: PubChem BioAssay (several laboratories)
